Ecoli growth = E. coli growth inhibition | AID 1053175 | OD600 absorbance (test concentration not listed) | Escherichia coli growth, OD600, 23 h; stronger effect = lower value | 0.21% of 330,000 active;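 active = OD600 absorbance below the run mean of sample wells minus 3.6 SD, in any replicate, cut at about 0.56 in these data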;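 note: stock transfer was 300 nL into about 60 µL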
UCH37 inh = human UCH37 deubiquitinating enzyme inhibition. inhibition, % (no concentration beside the values). 0.33% of 330,000 active. purified proteasome/UCH37, Ub-AMC cleavage fluorescence. Q9Y5K5;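 active = mean of two replicates above 20%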;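 note: 0% = compound-free wells with enzyme and 100% = wells lacking proteasome; stock transfer was 100 nL into about 20 µL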
Target sequence (Q9Y5K5 whole entry, looked up): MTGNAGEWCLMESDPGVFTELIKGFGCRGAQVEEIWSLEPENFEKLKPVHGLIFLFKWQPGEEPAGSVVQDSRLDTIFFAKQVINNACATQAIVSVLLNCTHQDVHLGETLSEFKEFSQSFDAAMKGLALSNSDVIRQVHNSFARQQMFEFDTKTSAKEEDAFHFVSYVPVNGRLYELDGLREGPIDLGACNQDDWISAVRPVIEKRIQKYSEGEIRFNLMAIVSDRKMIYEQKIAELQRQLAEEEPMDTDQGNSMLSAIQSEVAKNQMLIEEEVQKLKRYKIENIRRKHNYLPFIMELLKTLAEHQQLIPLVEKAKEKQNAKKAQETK
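System: Proteasome-associated human UCH37 deubiquitinase; Input: 0.15 nM proteasome in added enzyme buffer; Also added: Ub-AMC substrate from 1 µM stock; Incubation: 30 min compound-proteasome preincubation then 25 min substrate reaction, room temperature; Detection: fluorescence, ex 355 nm, em 460 nm; Read-out: % inhibition of Ub-AMC cleavage fluorescence; Benchmarks: no-proteasome and no-compound wells.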
* hit, by the source's call.

What do the screens show for `C=CCON=C(C)c1c(O)c(C)c(-c2ccccc2)n(-c2ccccc2)c1=O`?
Ecoli growth: 0.71; UCH37 inh: -0.5

Results for Cc1ccc(S(=O)(=O)N=C(Nc2cc(C)on2)c2ccc(Cl)cc2)cc1 ?
Ecoli growth: 0.68; UCH37 inh: 0.8

What do the screens show for `CCOc1cccc(-c2c(C(=O)NN=Cc3ccsc3)nnn2-c2nonc2N)c1`?
Ecoli growth: 0.66; UCH37 inh: 3.0

Results for Cc1ccc(OS(=O)(=O)c2ccccc2)c(C=N/N=C2\NC(=O)C(C)S2)c1 (stereo not drawn) ?
Ecoli growth: 0.76; UCH37 inh: 4.4

How did O=C(CN1CCCCC1)NN=Cc1ccccc1OCc1ccccc1 do in these assays?
Ecoli growth: 0.69; UCH37 inh: 1.0

How did CCCC(C)=NNC(=O)c1ccccc1O do in these assays?
Ecoli growth: 0.74; UCH37 inh: -144

Results for CC(=NNC(=O)c1cccc2ccccc12)c1ccccn1 ?
Ecoli growth: 0.66; UCH37 inh: 3.2

What do the screens show for `COc1ccc(OC)c(C(O)=CC(=O)C(=O)Nc2ccccc2OC)c1`?
Ecoli growth: 0.72; UCH37 inh: 6.0

What do the screens show for `NC(=NOC(=O)CCC1CCCC1)c1ccc([N+](=O)[O-])cc1`?
Ecoli growth: 0.71; UCH37 inh: 2.1

Results for Cc1cc(=O)[nH]c(NN=Cc2sccc2C)n1 ?
Ecoli growth: 0.64; UCH37 inh: 9.8

How did O=C(NN=Cc1coc2ccccc2c1=O)c1cn(-c2ccccc2)nc1-c1ccc(F)cc1 do in these assays?
Ecoli growth: 0.69; UCH37 inh: 3.2

How did COC(=O)c1cc(COc2ccc3c4c(c(=O)oc3c2)CCC4)c(C)o1 do in these assays?
Ecoli growth: 0.72; UCH37 inh: -9.0

How did CCOc1cc(C=Nn2cnnc2)ccc1OS(=O)(=O)c1ccccc1 do in these assays?
Ecoli growth: 0.71; UCH37 inh: 2.9

How did COc1ccc(C=NNC(=O)c2c(C)nc3ccccn23)cc1[N+](=O)[O-] do in these assays?
Ecoli growth: 0.72; UCH37 inh: 2.0

What do the screens show for `CN(C)c1ccc(C=NNC(=O)CN2CCN(c3ccc(F)cc3)CC2)cc1`?
Ecoli growth: 0.72; UCH37 inh: 3.0

Results for O=C(ON=C1CCS(=O)(=O)c2sccc21)C1CC1 ?
Ecoli growth: 0.68; UCH37 inh: -0.6

How did CCN(CC)S(=O)(=O)c1ccc(NN=C(C)c2ccncc2)nc1 do in these assays?
Ecoli growth: 0.67; UCH37 inh: 13

What do the screens show for `CCOC(=O)C(=NNc1ccccc1)c1csc(Nc2ccccc2)n1`?
Ecoli growth: 0.68; UCH37 inh: 4.8

Results for COC(=O)c1ccc(COc2ccccc2C=NNc2cccc(C(=O)O)c2)cc1 ?
Ecoli growth: 0.68; UCH37 inh: 1.5

What do the screens show for `COc1ccc(C(=O)ON=C2C(=O)N(C)c3ccccc32)cc1`?
Ecoli growth: 0.69; UCH37 inh: 1.4

Results for CCOc1cc(C=Nn2cnnc2)ccc1O ?
Ecoli growth: 0.62; UCH37 inh: 1.3

Results for Fc1ccccc1COc1ccc(C=Nn2cnnc2)cc1 ?
Ecoli growth: 0.71; UCH37 inh: 1.8

How did COC(=O)Cc1cc(=O)[nH]c(N=C(N)Nc2ccccc2C)n1 do in these assays?
Ecoli growth: 0.66; UCH37 inh: 7.1

Results for NC(=S)NN=Cc1ccc(-c2cccc(Cl)c2Cl)o1 ?
Ecoli growth: 0.77; UCH37 inh: 0.4

What do the screens show for `N#Cc1ccccc1Cn1cc(C=NNc2ccc([N+](=O)[O-])cn2)c2ccccc21`?
Ecoli growth: 0.7; UCH37 inh: 3.7

What do the screens show for `O=c1c2cnn(-c3ccc(F)cc3)c2ncn1Cc1ccccn1`?
Ecoli growth: 0.66; UCH37 inh: -0.7

How did O=C(NN=Cc1c[nH]c2ccccc12)c1ccc(O)c(O)c1 do in these assays?
Ecoli growth: 0.69; UCH37 inh: 6.5

What do the screens show for `COc1cc(C=NNC(=O)c2csc3c2CCCC3)cc(OC)c1O`?
Ecoli growth: 0.75; UCH37 inh: 7.0

How did CC(=NNC(=O)c1ccncc1)c1cc2ccccc2o1 do in these assays?
Ecoli growth: 0.72; UCH37 inh: 5.4

What do the screens show for `Cc1ccc(C)c(OCC(=O)NN=Cc2c(C)nn(-c3ccccc3)c2Cl)c1`?
Ecoli growth: 0.72; UCH37 inh: 4.3

What do the screens show for `COc1ccc(CSCC(=O)NN=Cc2ccccc2OCc2ccccc2)cc1`?
Ecoli growth: 0.69; UCH37 inh: 3.3

Results for CC(=NNC(=O)CN(c1ccccc1Br)S(C)(=O)=O)c1ccc2c(c1)OCCO2 ?
Ecoli growth: 0.71; UCH37 inh: 1.0

What do the screens show for `CCCC(=NNC(=O)C1CC1)c1ccccc1`?
Ecoli growth: 0.65; UCH37 inh: 5.6

What do the screens show for `O=C(NN=Cc1ccoc1)c1ccco1`?
Ecoli growth: 0.65; UCH37 inh: 3.0

What do the screens show for `Cc1ccc(-c2c(C(=O)NN=Cc3ccc(OC(C)C)cc3)nnn2-c2nonc2N)cc1`?
Ecoli growth: 0.67; UCH37 inh: -45

How did O=C1N(O)C2(C=CCCC2)C(=NO)C12CCCCC2 (stereo not drawn) do in these assays?
Ecoli growth: 0.73; UCH37 inh: -1.1

What do the screens show for `CCOc1cc(C=NNC(N)=S)cc(Br)c1OCc1ccccc1C`?
Ecoli growth: 0.76; UCH37 inh: 4.8

How did O=C(NN=Cc1ccc(OC(=O)c2ccco2)cc1)c1ccncc1 do in these assays?
Ecoli growth: 0.68; UCH37 inh: -3.1

How did CCC1C(=NO)CC(c2ccco2)NC1c1ccco1 (stereo not drawn) do in these assays?
Ecoli growth: 0.69; UCH37 inh: 2.1

What do the screens show for `COc1cc(OC)c(OC)cc1C=NNc1ncnc2c1[nH]c1ccccc12`?
Ecoli growth: 0.7; UCH37 inh: -16

Results for CC(Cn1nnc([N+](=O)[O-])n1)=NNC(=O)c1ccc(C)cc1 ?
Ecoli growth: 0.69; UCH37 inh: 6.8

How did CC(C)c1ccc(C=NNC(=O)c2cccc(Cl)c2)cc1 do in these assays?
Ecoli growth: 0.68; UCH37 inh: 3.4

How did CON=CC1C(=O)NN=C1c1ccccc1 (stereo not drawn) do in these assays?
Ecoli growth: 0.69; UCH37 inh: 0.7

What do the screens show for `O=C(NN=Cc1cc2c(cc1Cl)OCO2)c1cccnc1`?
Ecoli growth: 0.71; UCH37 inh: 2.2

Results for O=C(NN=Cc1ccoc1)c1cccc(OC(F)(F)C(F)F)c1 ?
Ecoli growth: 0.6; UCH37 inh: 0.7

The closing two entries of the part before come first, to join the parts:
What do the screens show for `O=C(NN=Cc1cc2c(cc1Cl)OCO2)c1cccnc1`?
Ecoli growth: 0.71; UCH37 inh: 2.2

Results for O=C(NN=Cc1ccoc1)c1cccc(OC(F)(F)C(F)F)c1 ?
Ecoli growth: 0.6; UCH37 inh: 0.7

Results for Nc1nnnn1N=Cc1ccc(Br)cc1 ?
Ecoli growth: 0.67; UCH37 inh: 1.7

Results for CN(N=Cc1cccs1)c1cc(=O)n(C)c(=O)[nH]1 ?
Ecoli growth: 0.77; UCH37 inh: 21*

Results for Cc1ccc(N2CCN(N=Cc3sccc3C)CC2)cc1 ?
Ecoli growth: 0.68; UCH37 inh: 2.0

Results for CC(=NNC(=O)c1ccccc1Br)c1ccc(N2CCOCC2)cc1 ?
Ecoli growth: 0.68; UCH37 inh: 4.6

Results for O=C(NN=C/C(Br)=C/c1ccccc1)c1ccccc1[N+](=O)[O-] ?
Ecoli growth: 0.54; UCH37 inh: 4.6

What do the screens show for `C/C(C=NNC(=O)c1ccccc1C)=C\c1ccccc1`?
Ecoli growth: 0.64; UCH37 inh: 6.6

How did O=C(Nc1ccc(Cl)c(Cl)c1)ON=Cc1ccncc1 do in these assays?
Ecoli growth: 0.56; UCH37 inh: 0.3

How did COc1ccc(C=NN2CCN(c3ccccc3)CC2)cc1Br do in these assays?
Ecoli growth: 0.71; UCH37 inh: 6.5

Results for O=C(CCN1CCN(c2ccccc2)CC1)NN=Cc1ccccc1OC(F)F ?
Ecoli growth: 0.68; UCH37 inh: -11

How did C=CCN1C(=O)C(C)SC1=NS(=O)(=O)c1ccc(Cl)cc1 (stereo not drawn) do in these assays?
Ecoli growth: 0.71; UCH37 inh: 2.6

Results for C=CCOc1cccc(C=NNC(=O)C(=O)NCc2ccco2)c1 ?
Ecoli growth: 0.72; UCH37 inh: 1.9

How did Cc1ccc(NC(=O)CCC(=O)NN=Cc2ccc(O)cc2O)cc1 do in these assays?
Ecoli growth: 0.68; UCH37 inh: -7.7

Results for Fc1ccccc1C=NNc1cc(N2CCCCC2)ncn1 ?
Ecoli growth: 0.71; UCH37 inh: 3.4

What do the screens show for `S=c1[nH]nc(COc2ccccc2)n1N=Cc1ccc(Br)cc1`?
Ecoli growth: 0.71; UCH37 inh: 0.0

What do the screens show for `O=C(NN=Cc1ccc([N+](=O)[O-])o1)c1ccc(NS(=O)(=O)c2cccs2)cc1`?
Ecoli growth: 0.63; UCH37 inh: 14

How did COc1ccc(OCC(=O)NN=C(C)c2ccc(-n3ccnc3)cc2)cc1 do in these assays?
Ecoli growth: 0.67; UCH37 inh: 1.2

How did O=C1CC(C(=O)Nc2ccc(Cl)c(Cl)c2)S/C(=N\N=Cc2ccco2)N1 (stereo not drawn) do in these assays?
Ecoli growth: 0.6; UCH37 inh: 4.3

Results for Cc1ccc(C=NNC(=O)c2nnn(-c3nonc3N)c2-c2ccc3c(c2)OCO3)s1 ?
Ecoli growth: 0.7; UCH37 inh: -2.2

What do the screens show for `Cc1cc([N+](=O)[O-])cc(C)c1OCC(=O)NN=Cc1ccc(OC(=O)c2ccccc2)cc1`?
Ecoli growth: 0.75; UCH37 inh: 3.1

What do the screens show for `COc1ccc2ccccc2c1C=NNC(=S)NCCN1CCOCC1`?
Ecoli growth: 0.74; UCH37 inh: 3.7

How did COc1cc(C=NNc2nc(N3CCCC3)nc(N3CCCC3)n2)ccc1O do in these assays?
Ecoli growth: 0.69; UCH37 inh: -1.3

How did CCOc1cc(C=NNC(=O)NN=Cc2ccc(O)c(OCC)c2)ccc1O do in these assays?
Ecoli growth: 0.62; UCH37 inh: 7.5

What do the screens show for `CC(=NNc1cc(N2CCOCC2)nc(C)n1)c1cccc([N+](=O)[O-])c1`?
Ecoli growth: 0.71; UCH37 inh: 7.6

How did CC(C)(C)OC(=O)n1cc(C=NNC(=O)c2ccco2)c2ccccc21 do in these assays?
Ecoli growth: 0.71; UCH37 inh: 2.3

How did COC(=O)NN=Cc1cc(N=Nc2ccccc2Cl)ccc1O do in these assays?
Ecoli growth: 0.67; UCH37 inh: 2.4

How did CC(=NNC(N)=O)c1cc(Cl)cc(Cl)c1O do in these assays?
Ecoli growth: 0.68; UCH37 inh: -0.1

What do the screens show for `CC(=NOC(=O)c1ccc(C)cc1)C(=O)c1ccc(Br)cc1`?
Ecoli growth: 0.61; UCH37 inh: 1.9

Results for CC(CC(=O)Nc1ccccc1[N+](=O)[O-])=NNC(=O)COc1ccccc1C ?
Ecoli growth: 0.67; UCH37 inh: 2.5

What do the screens show for `CCCS/C(N)=N/N=Cc1cc(C)ccc1O`?
Ecoli growth: 0.68; UCH37 inh: 4.6

Results for Cc1ccc(NN=Cc2cccnc2)cc1 ?
Ecoli growth: 0.66; UCH37 inh: 2.6

What do the screens show for `COc1ccc(C=NNC(=O)c2cc3c(ccc4ccccc43)o2)cc1O`?
Ecoli growth: 0.73; UCH37 inh: -50

Results for CCOc1ccc(C=NNC(=O)CNC(=O)c2ccc(S(=O)(=O)N3CCOCC3)cc2)cc1 ?
Ecoli growth: 0.7; UCH37 inh: 5.0

What do the screens show for `CC(=NNS(=O)(=O)c1ccccc1)c1cc(Cl)cc(Cl)c1O`?
Ecoli growth: 0.67; UCH37 inh: 4.3

What do the screens show for `ON=C1C2C3CC4C5C3C1C5C1(OCCO1)C42` (stereo not drawn)?
Ecoli growth: 0.7; UCH37 inh: 5.0

How did COc1ccc(OCC(=O)NN=Cc2cccc3cccnc23)cc1 do in these assays?
Ecoli growth: 0.71; UCH37 inh: 7.2

Of the compounds above, these contain a nitro group on carbon:
What do the screens show for `NC(=NOC(=O)CCC1CCCC1)c1ccc([N+](=O)[O-])cc1`?
Ecoli growth: 0.71; UCH37 inh: 2.1

How did COc1ccc(C=NNC(=O)c2c(C)nc3ccccn23)cc1[N+](=O)[O-] do in these assays?
Ecoli growth: 0.72; UCH37 inh: 2.0

What do the screens show for `N#Cc1ccccc1Cn1cc(C=NNc2ccc([N+](=O)[O-])cn2)c2ccccc21`?
Ecoli growth: 0.7; UCH37 inh: 3.7

Results for CC(Cn1nnc([N+](=O)[O-])n1)=NNC(=O)c1ccc(C)cc1 ?
Ecoli growth: 0.69; UCH37 inh: 6.8

Results for O=C(NN=C/C(Br)=C/c1ccccc1)c1ccccc1[N+](=O)[O-] ?
Ecoli growth: 0.54; UCH37 inh: 4.6

What do the screens show for `O=C(NN=Cc1ccc([N+](=O)[O-])o1)c1ccc(NS(=O)(=O)c2cccs2)cc1`?
Ecoli growth: 0.63; UCH37 inh: 14

What do the screens show for `Cc1cc([N+](=O)[O-])cc(C)c1OCC(=O)NN=Cc1ccc(OC(=O)c2ccccc2)cc1`?
Ecoli growth: 0.75; UCH37 inh: 3.1

What do the screens show for `CC(=NNc1cc(N2CCOCC2)nc(C)n1)c1cccc([N+](=O)[O-])c1`?
Ecoli growth: 0.71; UCH37 inh: 7.6

Results for CC(CC(=O)Nc1ccccc1[N+](=O)[O-])=NNC(=O)COc1ccccc1C ?
Ecoli growth: 0.67; UCH37 inh: 2.5

Only part of the results is shown. The share of hits here may be higher or lower than overall.
